Bead autofluor: counter-screen for toxin protease inhibitors: compound fluorescence; compound autofluorescence counterscreen, microsphere flow cytometry; hits give high values; fluorescence intensity (no concentration beside the values); 3.1% of 360,000 active;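 active means at least 3 SD above the mean of all compounds, about 16000 in these data; inconclusive means too few beads counted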;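 further: 100 nL of 1 mM stock went into each well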
RN4220 kill: S. aureus RN4220 growth inhibition | inhibition, % (no concentration beside the values) | 0.33% of 330,000 active | OD600, 16 h;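 active means z-score of -3 or lower and OD600 up to 0.18 on both plates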;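 further: plate controls were untreated cells for no effect and reference antibiotic for full effect; stock transfer was 100 nL into about 80 µL; one replicate is shown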
ugtP null kill: kills S. aureus RN4220 lacking UgtP; S. aureus RN4220 ugtP deletion, OD600 growth, 16 h; some inactives read as strong as hits; growth inhibition, % (no concentration beside the values); 0.54% of 330,000 active;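 active means z-score under -3 and OD600 up to 0.15 on both plates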;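 further: plate controls were untreated wells for no effect and antibiotic for full effect; wells of about 80 µL received 100 nL stock; the first replicate is given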
PrP UTR inh: inhibition of PrP 5' UTR reporter expression | 0.35% of 340,000 active | inhibition, % (no concentration beside the values) | cell-based PrP 5' UTR mRNA reporter, plate reader | AID 488862;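 active means every replicate at 50% or more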;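 further: 0 = median of the neutral control wells; tested in H4 reporter cells; numbers are from one replicate; inactives centre near -14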
Mtb hypoxia inh: Mtb hypoxia fluorescent reporter inhibition. 0.1% of 300,000 active. M. tuberculosis hypoxia-regulated fluorescent reporter, fluorescence. fluorescence inhibition, % (no concentration beside the values);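 active means 35 to 45% if threefold the growth effect, above 45% if 1.5-fold the growth effect; inactive means the rest, general growth blockers included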;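 further: wells of about 50 µL received 100 nL stock; 0% = vehicle wells and 100% = reference inhibitor wells; whole bacteria with a GFP reporter of the hypoxia response; strong numbers were not always called active; many hits fall short of the cut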
BJeLR viability: BJeLR cell viability loss | BJeLR (HRASV12) viability, CellTiter-Glo ATP luminescence, 48 h; reference of the scale not given here | inhibition, % (concentration not given with the values) | 0.17% of 300,000 active | AID 1554;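 active means replicate mean above 50%; inconclusive means above 50% but judged a plate artefact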;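 further: 50 nL library stock added to about 25 µL; numbers are from one replicate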
Mtb hypoxia inh growth: second read-out of Mtb hypoxia inh, no call of its own (marks repeat the call); growth inhibition, %; measured here: M. tuberculosis growth (absorbance);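 0% = vehicle and 100% = reference antibiotic; read after six days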
* hit, by the source's call; ? = inconclusive; . = not tested or not shown; & = joins results of further samples. Random draw from the library; any-hit rate near 4%.

no.	compound	Bead autofluor	RN4220 kill	ugtP null kill	PrP UTR inh
1	COc1ccc(NC(=O)CCC(=O)OCC(=O)c2ccc(Oc3ccc([N+](=O)[O-])cc3)cc2)cc1	2577	.	.	-15
2	COc1ccc(OC)c(CNC(=O)CCSCc2ccc(F)cc2Cl)c1	3905	-2.7	0	-6
3	O=C(Nc1ccc(Br)cc1)c1cccn1-c1ncc(C(F)(F)F)cc1Cl	11115	-4.9	39	-25
4	CC/C(=N\NC(=O)Nc1nonc1N)c1ccc(OC)c(OC)c1	4593	.	.	-24
5	NS(=O)(=O)c1ccc(CCNC(=O)C(=O)NCC2OCCN2C(=O)c2ccc3c(c2)OCO3)cc1 (stereo unspecified)	2083	0.1	-2	-20
6	COC(=O)c1cccc(NC(=O)CSc2nnc(C)n2Cc2ccccc2)c1	3923	1.7	4	-26
7	COc1c(C(C)C)oc2cc3oc(=O)ccc3cc12	4417	14	-6	-14
8	COc1ccc(C(C[N+](=O)[O-])c2c(-c3ccccc3)cc3ccccn23)c(OC)c1 (stereo unspecified)	11631	.	.	-28

no.	Mtb hypoxia inh	Mtb hypoxia inh growth	BJeLR viability
1	.	.	5
2	6	0	-2
3	-7	-5	-6
4	.	.	-17
5	5	17	-8
6	0	-3	-17
7	6	2	-2
8	.	.	1

Further compounds:
no.	compound	Bead autofluor	RN4220 kill	ugtP null kill	PrP UTR inh
9	Brc1ccc2[nH]c3nc(SCCN4CCOCC4)nnc3c2c1	2218&4366	3.4	-13	-18&-5
10	CC(C)c1ccc(COC(=O)CN2C(=O)NC3(CCCCC3C)C2=O)cc1 (stereo unspecified)	5136	4.9	0	-12
11	CCCCNC(=O)C1CCC(CNc2c(N3CCC(C)CC3)c(=O)c2=O)CC1 (stereo unspecified)	6216	3.3	12	-14
12	CC(C)=CCC(C)(C)C1OCCN1C(=O)Nc1ccccc1 (stereo unspecified)	9022	2.2	0	-32
13	Cc1ccc(-c2noc(CN(C(=O)CCCCCN3C(=O)c4ccccc4C3=O)C(C)C)n2)cc1	3143	5.4	-10	-6
14	CCOc1cc(-c2cc(N)n[nH]2)cc(OCC)c1OCC	5318	-9.7	-4	-12
15	COc1ccccc1NC(=O)/C=C\C(=O)O	2029	2.7	8	-18
16	O=c1[nH]c(C(F)(F)F)nc2c1nnn2Cc1ccccc1F	2859	3.6	5	-10

no.	Mtb hypoxia inh	Mtb hypoxia inh growth	BJeLR viability
9	.	.	2&2
10	8	5	.
11	6	8	11
12	10	15	-5
13	-3	1	9
14	9	4	-6
15	12	13	-8
16	15	11	-24

(continued)
no.	compound	Bead autofluor	RN4220 kill	ugtP null kill	PrP UTR inh
17	CCN1CCN(CC(=O)c2c[nH]c3ccccc23)CC1	5085	4.4	-2	-2
18	COc1ccc([N+](=O)[O-])cc1Nc1c2ccccc2nc2ccccc12	3720	-4.7	1	-23
19	COC(=O)c1sc(NC(=O)c2c(C)noc2C)nc1C	.	3.5	13	-15
20	COc1ccc(NC(=O)COC(=O)CN2C(=O)c3ccccc3C2=O)cc1	.	1.5	-1	4
21	CC(=O)Nc1ccc(S(=O)(=O)Nc2cc(C)ccn2)cc1	4416	7.0	-1	-20
22	C=CCOc1ccc(/C(O)=C2/C(=O)C(=O)N(CCCn3ccnc3)C2c2ccco2)cc1 (stereo unspecified)	2700	1.9	3	-17
23	CCCNCc1nnc(-c2ccccc2Cl)o1	2138	4.5	6	-22
24	O=S(=O)(Cc1cc(Sc2ccccc2)nc(-c2ccccc2)n1)c1ccccc1	2916	-3.3	8	2

no.	Mtb hypoxia inh	Mtb hypoxia inh growth	BJeLR viability
17	.	.	5
18	-3	-2	33
19	4	-8	3
20	0	-5	.
21	8	0	5
22	4	-1	6
23	1	1	-5
24	.	.	6

Next section:
no.	compound	Bead autofluor	RN4220 kill	ugtP null kill	PrP UTR inh
25	COc1cccc(N2CC(NC(=O)c3cccc4ccccc34)CC2=O)c1 (stereo unspecified)	5207	-0.4	4	-6
26	CCC1(C)N(O)C(C)(C)C(c2ccc(F)cc2)=[N+]1[O-] (stereo unspecified)	4659	0.6	1	-15
27	CCN(CC)S(=O)(=O)c1ccc(NS(=O)(=O)c2ccc(O)c([N+](=O)[O-])c2)cc1	1905	3.1	9	-7
28	Cc1cc(C)n2nc(C(=O)OCC(=O)Nc3ccc(C)c(F)c3)nc2n1	3172	3.3	2	4
29	C/C(=N\NC(=O)c1cc(C)nc2ccccc12)c1cccc(Cl)c1	5731	.	.	-1
30	CCOc1ccc(-c2cccc(NS(=O)(=O)c3ccccc3[N+](=O)[O-])c2)nn1	5785	6.3	-3	-20
31	Cc1nn(C)cc1S(=O)(=O)N1CCN(Cc2ccccc2Cl)CC1	4178	0.7	5	-36
32	Cc1nnsc1NC(=O)OCC(C)(C)C	4003	4.8	3	-9

no.	Mtb hypoxia inh	Mtb hypoxia inh growth	BJeLR viability
25	1	2	2
26	.	.	-2
27	10	0	-1
28	-8	-2	.
29	.	.	6
30	13	0	-1
31	8	-8	-2
32	.	.	-13

The list continues.
no.	compound	Bead autofluor	RN4220 kill	ugtP null kill	PrP UTR inh
33	CCc1sc(C(=O)Nc2ccc3nc(C)sc3c2)cc1C	?	7.7	-4	-26
34	CCn1c(SCC(=O)Nc2ccc3c(c2)OCO3)nnc1C(C)C	5412	3.2	11	-8
35	O=C(NCCc1cccc(F)c1)C1CCC(=O)N(CCCc2ccccc2)C1 (stereo unspecified)	4899	-3.1	-6	-21
36	CN(CC(=O)Nc1ccc(F)c(F)c1F)C(=O)c1ccc2c(c1)S(=O)(=O)N=C1CCCCCN12	?	5.7	14	0
37	CCN(CC)C(=O)CSc1ncnc2sc(C)c(C)c12	4583	.	.	-26
38	CSc1nc(C)cc(Oc2ccccc2)n1	3322	8.2	7	-11
39	O=C(O)C1=CC(c2csc3ccccc23)CC(OCc2ccc(CO)cc2)O1 (stereo unspecified)	.	2.9&5.6	0&3	.
40	CCC(=O)NCCc1nc2cc(NC(=O)c3ccco3)ccc2n1C	5852	2.1	4	-28

no.	Mtb hypoxia inh	Mtb hypoxia inh growth	BJeLR viability
33	-4	2	.
34	5	8	4
35	-6	7	3
36	10	1	7
37	.	.	-4
38	13	9	-2
39	6&19	8&15	.
40	-6	-1	3

Among those listed so far, 4 contain an NH in an aromatic ring.
no.	compound	Bead autofluor	RN4220 kill	ugtP null kill	PrP UTR inh
9	Brc1ccc2[nH]c3nc(SCCN4CCOCC4)nnc3c2c1	2218&4366	3.4	-13	-18&-5
14	CCOc1cc(-c2cc(N)n[nH]2)cc(OCC)c1OCC	5318	-9.7	-4	-12
16	O=c1[nH]c(C(F)(F)F)nc2c1nnn2Cc1ccccc1F	2859	3.6	5	-10
17	CCN1CCN(CC(=O)c2c[nH]c3ccccc23)CC1	5085	4.4	-2	-2

no.	Mtb hypoxia inh	Mtb hypoxia inh growth	BJeLR viability
9	.	.	2&2
14	9	4	-6
16	15	11	-24
17	.	.	5

(list continues)
no.	compound	Bead autofluor	RN4220 kill	ugtP null kill	PrP UTR inh
41	COCCNC(=O)C(C)N(c1ccc(OC)cc1)S(C)(=O)=O (stereo unspecified)	9683	1.2	-3	-12
42	Cc1ccc(C)c(-c2nc3cc(N)ccc3o2)c1	3172	6.8	-8	45
43	Cn1cnc(S(=O)(=O)Nc2ccc3c(c2)OCCO3)c1	3289	2.5	1	-16
44	COc1ccc(/C=N/NC(=O)COc2ccccc2-c2ccccc2)cc1	3995	.	.	12
45	CCC(=NCCCN(CC)CC)c1c(O)n(-c2ccccc2)c(=O)[nH]c1=O	24318*	-2.6	-3	5
46	CC(C)(C)c1nc(N2CCN(C(=O)c3ccco3)CC2)c2nnn(Cc3ccccc3Cl)c2n1	11135	-9.4	79	-6
47	O=C(Cn1nc(C(=O)O)c2ccccc2c1=O)Nc1cc(Cl)ccc1-n1cncn1	5974	0.4	3	-7
48	O=[N+]([O-])c1ccc(CN2CCSCC2)cc1	3225	.	.	-14

no.	Mtb hypoxia inh	Mtb hypoxia inh growth	BJeLR viability
41	3	9	0
42	1	2	1
43	1	8	1
44	.	.	34
45	-10	-2	4
46	-13	-3	-4
47	3	10	.
48	.	.	-15

Remaining list, next part.
no.	compound	Bead autofluor	RN4220 kill	ugtP null kill	PrP UTR inh
49	OCC1(Cc2ccccc2)CCN(C2CCN(c3ccccc3F)CC2)CC1	4122	-0.3	-8	9
50	N#Cc1cnn2c1nc(N1CCCCC1)c1ccccc12	.	-0.8	-6	2
51	O=C(NCCc1ccccc1)c1cc(-c2ccco2)on1	10012	3.5	1	-61
52	CCOC(=O)C1=C(COC(=O)c2nc(Cl)ccc2Cl)NC(=O)NC1C (stereo unspecified)	?	2.9	4	-11
53	O=C(C[n+]1ccccc1)Nc1ccc(Cl)c([N+](=O)[O-])c1	3796	2.6	8	-13
54	O=C(C1CCN(S(=O)(=O)N2CCOCC2)CC1)N1CCN(c2ccc(F)cc2)CC1	4397	2.9	7	-12
55	Cn1ccc(C(=O)OCC(=O)Nc2ccccc2)n1	3508	6.3	0	-7
56	Cc1c(P(=S)(c2ccccc2)c2ccccc2)[n+]2ccccc2n1C	4141&4202	3.8	2	-11

no.	Mtb hypoxia inh	Mtb hypoxia inh growth	BJeLR viability
49	-10	9	.
50	-3	-5	8
51	2	6	5
52	0	-5	.
53	-1	-6	-2
54	-3	1	6
55	-15	0	-18
56	-1	16	7

Additional records follow.
no.	compound	Bead autofluor	RN4220 kill	ugtP null kill	PrP UTR inh
57	Cn1cccc1-c1nc2ccccc2n1Cc1ccccc1	4173	-1.2	4	-27
58	Cc1ccc(C2(c3ccccc3)NC(=O)N(CC(=O)NCc3ccccc3)C2=O)cc1C (stereo unspecified)	3591	-5.9	-6	80*
59	Cc1ccc(-c2nnc3ccc(SCC(=O)N4CCCc5ccccc54)nn23)cc1	2467	7.8	-14	-14
60	O=S(=O)(NCC1CCCO1)c1ccc(S(=O)(=O)N(Cc2ccc(F)cc2)Cc2ccccn2)cc1 (stereo unspecified)	2510	11	2	-6
61	Cc1ccc(S(=O)(=O)N2CCC(C(=O)N3CCC[C@H]3C(=O)NCC(C)C)CC2)cc1	4476	2.6	7	-14
62	CC(C)/C(C=O)=C(/NC1CCCCC1)c1ccccc1	3741	.	.	-11
63	CC(C)C(=O)NNc1nc2ccccc2s1	10245	12	-2	-50
64	O=C(NN=C/C(Cl)=C\c1ccccc1)c1ccco1	.	-4.1	2	.

no.	Mtb hypoxia inh	Mtb hypoxia inh growth	BJeLR viability
57	.	.	0
58	10	10	.
59	6	6	-6
60	15	7	12
61	5	0	-4
62	.	.	4
63	15	12	-1
64	-1	-15	.

Carrying on:
no.	compound	Bead autofluor	RN4220 kill	ugtP null kill	PrP UTR inh
65	CC(=O)Oc1ccc(N2C(=O)CC(N3CCOCC3)C2=O)cc1 (stereo unspecified)	3276	-0.5	9	30
66	O=C(CCl)N(Cc1cccc([N+](=O)[O-])c1)c1cccc(Cl)c1	2008	95*	98*	-8
67	CCN(CC)S(=O)(=O)c1cccc(C(=O)NC(Cc2c[nH]c3ccccc23)c2nnc3n2CCC3)c1 (stereo unspecified)	10792	2.1	5	-19
68	Cc1ccccc1C(=O)N1CCC(C(=O)N(CC(C)C)c2c(N)n(Cc3ccccc3)c(=O)[nH]c2=O)CC1	6366	4.7	5	-15
69	CC1CCN(C(=O)C(C)OC(=O)CSc2ccc([N+](=O)[O-])cc2)CC1 (stereo unspecified)	6479	2.4	6	4
70	CC(=O)Nc1nc2ccc(Br)cc2s1	4119	-4.8	-3	-52
71	COc1ccc2oc(C(=O)OCC(=O)NC3CCCCC3)c(C)c2c1	.	2.6	14	-34
72	CC(Nc1nc(Nc2ccc(F)cc2)nc(SCC(N)=O)n1)c1ccccc1 (stereo unspecified)	4420	-11	-1	-14
73	Cc1ccccc1NC(=O)Cn1c(=O)n(Cc2ccccc2)c(=O)c2c(C)c(C)sc21	2081	1.6	5	-6
74	CC1CCCC(NC(=O)CSc2ncnc3ccccc23)C1C (stereo unspecified)	.	-3.8	-9	5

no.	Mtb hypoxia inh	Mtb hypoxia inh growth	BJeLR viability
65	.	.	-1
66	.	.	40
67	3	10	-10
68	15	4	-2
69	4	-7	.
70	6	-4	10
71	10	-6	9
72	10	0	0
73	10	1	-7
74	8	-1	.

Compound activity from PubChem BioAssay.
